# High-throughput results as filed in PubChem BioAssay.
# Ecoli rRNA inh – inhibitors of bacterial rRNA selective over humanized ribosomes; E. coli WT GFP vs humanized-ribosome RFP mutants, fluorescence, 24 h; hits give low values; DMSO median 0, no signal -100; GFP signal change (wild-type ribosome), % (concentration not given with the values); 1.6% of 350,000 active; AID 720706;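 active means significant combined selectivity score with lowered wild-type GFP, culture density cut under 30%, mutant RFP and density less affected; inactive means any of these conditions unmet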; further: one replicate is shown; some compounds called inactive have numbers as strong as hits
# Ecoli rRNA inh OD600 – recorded beside Ecoli rRNA inh, whose call it bears; OD600 change, %; measured here: OD600 growth;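 optical density of the mix in the first replicate; 0 = DMSO median and -100 = no signal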
# Ecoli rRNA inh RFP – also measured in Ecoli rRNA inh; calls as there; RFP signal change, %; measured here: RFP humanized mutant strains;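 first replicate; 0 = DMSO median and -100 = no signal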
# * marks the source's active call; other numbers are inactive results. Only part of the results is shown (hit frequency here may not be typical).
cpd	Ecoli rRNA inh OD600	Ecoli rRNA inh	Ecoli rRNA inh RFP	Compound
1	5	1	2.5	C[C@H]1CN([C@@H](C)CO)C(=O)c2cc(NC(=O)Nc3ccc(C(F)(F)F)cc3)ccc2O[C@@H]1CN(C)Cc1ccc(C(=O)O)cc1
2	3	3	12	COC(=O)c1cc2c(c3c4cc(F)ccc4n(S(=O)(=O)c4ccc(OC)cc4)c13)C(=O)N(C)C2
3	18	4	0.3	O=C1NCCOCn2nncc2CC[C@@H]1Cc1ccc(-c2ccccc2)cc1
4	10	3	-1.5	CCCC(=O)Nc1ccc2c(c1)C(=O)N(C)C[C@@H](OC)[C@H](C)CN(CCC)[C@@H](C)CO2
5	10	2	2.4	C[C@H]1CN([C@@H](C)CO)C(=O)c2cc(NS(=O)(=O)c3ccccc3)ccc2O[C@H]1CN(C)S(C)(=O)=O
6	-24	-4	-2.5	Cc1ccc([C@H]2N[C@]3(CCCN(Cc4ccc(F)cc4)C3=O)[C@H]3C(=O)N(Cc4ccccc4)C(=O)[C@@H]23)cc1
7	4	2	0.4	COc1ccc(S(=O)(=O)N(C)C[C@@H]2OCCCC[C@@H](C)Oc3ccc(NS(=O)(=O)c4ccc(C)cc4)cc3C(=O)N([C@H](C)CO)C[C@@H]2C)cc1
8	-2	3	2.1	C[C@H]1CN([C@@H](C)CO)C(=O)Cc2cc(NC(=O)NC3CCCCC3)ccc2O[C@H]1CN(C)S(=O)(=O)c1ccc(F)cc1
9	1	-3	-3.2	CCC(=NNc1ccc([N+](=O)[O-])cc1[N+](=O)[O-])c1ccccc1
10	-4	-2	0.4	C[C@H](CO)N1C[C@H](C)[C@H](CN(C)C(=O)CN2CCOCC2)Oc2ncc(C3=CCCCC3)cc2C1=O
11	7	4	-0.8	C[C@@H]1CCCCO[C@H](CN(C)C(=O)Cc2ccccc2)[C@@H](C)CN([C@H](C)CO)C(=O)c2cc(NS(C)(=O)=O)ccc2O1
12	0	0	-0.9	CC(C)NC(=O)Nc1ccc2c(c1)C(=O)N([C@H](C)CO)C[C@@H](C)[C@H](CN(C)C(=O)c1ccccc1)OCCCC[C@@H](C)O2

cpd	Ecoli rRNA inh OD600	Ecoli rRNA inh	Ecoli rRNA inh RFP	Compound
13	4	4	0.1	O=C(C[C@H]1CC[C@@H](NC(=O)CN2CCOCC2)[C@@H](CO)O1)NCCc1ccncc1
14	20	11	5.6	O=C(NCc1ccccc1)[C@@H]1CCCN1C(=O)[C@H]1CCCN1C(=O)c1ccc(F)cc1
15	3	0	-0.6	O=C(C[C@H]1C[C@H]2c3cc(NC(=O)C4CCC4)ccc3O[C@H]2[C@H](CO)O1)NCC(F)(F)F
16	0	-2	-3.2	CCC(=O)N1[C@@H](CO)[C@@H](c2ccc(-c3cccc(F)c3)cc2)[C@@H]1CNC(C)=O
17	12	6	-3.8	C[C@H](CO)N1C[C@H](C)[C@@H](CN(C)Cc2ccncc2)Oc2ncc(C#Cc3ccncc3)cc2C1=O
18	3	0	-0.3	C/C=C/c1cnc2c(c1)C(=O)N([C@@H](C)CO)C[C@H](C)[C@@H](CN(C)C(=O)Nc1ccc(F)cc1)O2
19	9	3	-1.9	CCC(=O)N1CC2(C1)[C@H](c1ccccc1)[C@@H](CO)N2C(=O)c1ccncc1
20	-5	-3	-1.6	NC(=O)C1CCN(C(=O)c2ccc(Cl)c(S(=O)(=O)N3CCc4ccccc43)c2)CC1
21	3	-2	1.4	Cc1nc2ccc(C(=O)N(C)Cc3ccccc3)cn2c1N(C)C(=O)CCc1ccccc1
22	-11	-2	-0.2	C[C@@H]1CN([C@@H](C)CO)C(=O)Cc2cc(NS(=O)(=O)c3ccccc3)ccc2O[C@@H]1CN(C)S(=O)(=O)c1ccc(F)cc1
23	8	-1	0.1	O=C(C[C@H]1C=C[C@H](NC(=O)Nc2ccc3c(c2)OCO3)[C@H](CO)O1)NCc1ccc2c(c1)OCO2
24	3	-1	1.0	COc1ccc(S(=O)(=O)Nc2ccc3c(c2)C(=O)N([C@@H](C)CO)C[C@@H](C)[C@H](CN(C)S(=O)(=O)c2cccs2)OCCCC[C@H](C)O3)cc1

cpd	Ecoli rRNA inh OD600	Ecoli rRNA inh	Ecoli rRNA inh RFP	Compound
25	13	8	1.0	CCOC(=O)C1(C)CCN1C(=O)c1ccc(OC)c(OC)c1 (stereo unspecified)
26	12	8	2.5	CC[C@H]1C/C=C\C[C@H](C(C)C)NC(=O)CCC(=O)N1
27	-43	-10	12	CC=Cc1ccc2n(c1=O)C[C@@H]1[C@@H](CO)[C@H](C(=O)Nc3ccc(-c4ccccc4)cc3)[C@H]2N1C(=O)CC (mixture of isomers)
28	-11	-7	3.3	C[C@@H]1CN([C@H](C)CO)C(=O)Cc2cc(NC(=O)Cc3ccccc3)ccc2O[C@H]1CN(C)Cc1ccc2c(c1)OCO2
29	-1	2	-3.4	O=C(N[C@@H]1CC[C@H](CC(=O)N2CCOCC2)O[C@H]1CO)c1ccccn1
30	1	-2	-3.3	CCCCNC(=O)c1nc(C2CCN(S(=O)(=O)c3ccc(S(C)(=O)=O)cc3)CC2)oc1-c1ccccc1
31	-8	-1	-0.1	CNC(=O)C[C@@H]1CC[C@H]2[C@H](COc3ccc(NC(=O)Nc4ccccc4OC)cc3C(=O)N2C)O1
32	-7	-3	-4.0	CCC(=O)N(C)C[C@@H]1Oc2cc(-c3cccc(OC)c3)ccc2S(=O)(=O)N([C@H](C)CO)C[C@H]1C
33	1	3	-2.4	CNC[C@H]1Oc2ccc(NC(=O)Nc3ccccc3)cc2C(=O)N([C@H](C)CO)C[C@@H]1C
34	1	2	0.0	C[C@H](CO)N1C[C@H](C)[C@H](CN(C)CC2CCOCC2)Oc2cc(C#C[C@@H](C)O)ccc2S1(=O)=O
35	-1	-4	-2.3	CC(C)[C@@H]1COCc2cn(nn2)CCC[C@H](C)C(=O)N1
36	-3	-5	-0.7	COc1ccc(NC(=O)N[C@H]2CC[C@@H](CCn3cc(-c4ccc(F)cc4)nn3)O[C@H]2CO)cc1

cpd	Ecoli rRNA inh OD600	Ecoli rRNA inh	Ecoli rRNA inh RFP	Compound
37	0	-1	1.4	CN(c1ccc(Cl)cc1)c1cc2c(c3c1ccn3C)C1CCC2C1 (stereo unspecified)
38	18	11	3.3	CC1(Oc2ccc(F)cc2)CCN(Cc2ccccc2OC(F)F)C1 (stereo unspecified)
39	-13	-7	3.8	Cc1ccc(S(=O)(=O)Nc2ccc3c(c2)C(=O)N([C@H](C)CO)C[C@@H](C)[C@@H](CN(C)S(=O)(=O)c2ccc(F)cc2)O3)cc1
40	6	3	-3.1	CN(C)CC(=O)Nc1ccc2c(c1)[C@@H]1C[C@H](CC(=O)NCc3ccccc3)O[C@@H](CO)[C@@H]1O2
41	9	1	-2.2	COc1ccc2c3c([nH]c2c1)[C@@H](CO)N(S(C)(=O)=O)CC31CN(C(=O)Nc2ccccc2)C1
42	2	5	0.1	C[C@@H]1CN([C@H](C)CO)C(=O)c2cccc(NC(=O)Nc3ccc(C(F)(F)F)cc3)c2O[C@@H]1CN(C)Cc1ccc(Oc2ccccc2)cc1
43	10	-1	-2.1	COc1ccc(S(=O)(=O)N(C)C[C@@H]2OCCCC[C@@H](C)Oc3ccc(NC(=O)Nc4ccc(F)cc4)cc3C(=O)N([C@@H](C)CO)C[C@@H]2C)cc1
44	3	4	-2.7	CC(=O)Nc1ccc(C(=O)N2CCOCC2c2cc(C(=O)NCc3ccccc3)no2)cc1 (stereo unspecified)
45	0	0	-1.0	C[C@@H]1CCCCO[C@@H](CN(C)C(=O)CCC(F)(F)F)[C@@H](C)CN([C@@H](C)CO)C(=O)c2cc(NS(=O)(=O)c3cn(C)cn3)ccc2O1
46	2	-1	-0.8	O=C1N[C@@H](Cc2ccccc2)COCc2cn(nn2)CC[C@H]1Cc1cccc(Cl)c1
47	-3	-2	2.4	CCCCNC(=O)C1(C)CCCCN1C(=O)c1oc2ccccc2c1C (stereo unspecified)
48	2	1	0.9	CCC(=O)Nc1ccc2c(c1)OC[C@@H](C)NC[C@H](C)[C@H](OC)CN(C)C2=O

cpd	Ecoli rRNA inh OD600	Ecoli rRNA inh	Ecoli rRNA inh RFP	Compound
49	-16	6	-1.0	CC(C)(C)C(c1nc2ccccc2[nH]1)n1c(-c2ccsc2)nc2ccccc21 (stereo unspecified)
50	2	1	-1.3	CN(C)CCCNC(=O)C[C@H]1CC[C@@H]2[C@@H](COc3ccc(NC(=O)C4CCC4)cc3C(=O)N2C)O1
51	-6	-1	3.7	CO[C@@H]1CN(C)C(=O)c2ccc(NC(=O)Nc3ccc(Cl)cc3)cc2OC[C@@H](C)N(C(=O)Nc2c(C)noc2C)C[C@H]1C
52	1	1	-0.8	O=C(C[C@@H]1CC[C@H](NC(=O)C2CCC2)[C@@H](CO)O1)NC1CCC1
53	-5	0	1.5	C[C@H](CO)N1C[C@H](C)[C@H](CN(C)S(=O)(=O)c2ccc(Cl)cc2)Oc2ccc(NC(=O)Nc3ccc(F)cc3)cc2C1=O
54	4	-4	0.3	C[C@H](CO)N1C[C@H](C)[C@H](CN(C)S(=O)(=O)c2cccs2)Oc2ncc(/C=C/c3ccccc3)cc2C1=O
55	3	-1	-1.3	C[C@H](CO)N1C[C@H](C)[C@H](CN(C)C(=O)Nc2ccc(C(F)(F)F)cc2)Oc2c(NS(=O)(=O)c3ccc(Cl)cc3)cccc2C1=O
56	-2	-8	7.5	COC(=O)[C@@]1(Cc2ccc(OC)cc2)[C@H]2c3cc(C(=O)N4CCCC4)n(Cc4ccccn4)c3C[C@H]2CN1C(=O)c1ccccc1
57	1	-1	-0.7	O=C(Nc1ccccc1F)N[C@@H]1CC[C@@H](CCNC(=O)C2CCCCC2)O[C@H]1CO
58	-10	0	0.4	C/C=C/c1ccc([C@H]2[C@@H](CO)N(C(=O)C3CCC3)C23CN(S(=O)(=O)CC)C3)cc1
59	-10	-1	0.4	C[C@H]1CCCCO[C@@H](CN(C)C(=O)c2ccccc2)[C@@H](C)CN([C@@H](C)CO)C(=O)c2cc(NC(=O)Cc3ccccc3)ccc2O1
60	14	4	-1.1	CCCNC(=O)N1[C@@H](C#N)[C@@H](c2ccccc2)[C@@H]1CO

cpd	Ecoli rRNA inh OD600	Ecoli rRNA inh	Ecoli rRNA inh RFP	Compound
61	5	0	1.6	O=C(c1ccc2c(c1)OCO2)N1CC2(C1)[C@H](c1ccccc1)[C@H](CO)N2C(=O)C1CCC1
62	3	2	0.9	COCCNC(=O)C[C@@H]1C[C@@H]2c3cc(NS(=O)(=O)c4ccc(F)cc4)ccc3O[C@@H]2[C@H](CO)O1
63	-5	3	-3.7	COc1ccc(NC(=O)N(C)C[C@@H]2Oc3ccc(NS(=O)(=O)c4cccs4)cc3C(=O)N([C@@H](C)CO)C[C@H]2C)cc1
64	8	-1	-0.4	CN(C)CC(=O)N1[C@@H]2c3ccc(-c4cccc(F)c4)c(=O)n3C[C@@H]2[C@@H](CO)[C@@H]1C(=O)NC1CCC1
65	-11	0	1.6	CCN1[C@@H]2Cn3c(ccc(/C=C/c4ccccc4)c3=O)[C@H]1[C@@H](C(=O)N1CCCCC1)[C@@H]2CO
66	4	3	-0.3	CC=Cc1ccc2n(c1=O)C[C@H]1[C@H](CO)[C@@H](C(=O)NCCc3cn(C)cn3)[C@@H]2N1C(=O)C1CC1 (mixture of isomers)
67	2	0	-0.1	O=C(Nc1ccc(F)cc1)N[C@H]1CC[C@@H](CCNC(=O)c2ccccc2F)O[C@H]1CO
68	-9	-8	8.2	Cn1cnc(S(=O)(=O)N2CC[C@@H]3[C@H](CO)Nc4ccc(-c5ccc(F)cc5)cc4[C@@H]32)c1
69	-2	0	0.2	CO[C@@H]1CN(C)C(=O)c2ccc(NS(C)(=O)=O)cc2OC[C@@H](C)N(CC2CCOCC2)C[C@H]1C
70	0	2	-0.7	COc1ccc(S(=O)(=O)Nc2cccc3c2O[C@@H](CN(C)C(=O)NC(C)C)[C@@H](C)CN([C@@H](C)CO)C3=O)cc1
71	-6	2	-0.5	C[C@@H]1CN([C@@H](C)CO)C(=O)c2cc(NS(=O)(=O)c3cccs3)ccc2O[C@@H](C)CCCCO[C@H]1CN(C)CC1CCCCC1

# Molecules from the list above containing two or more sulfur atoms:
cpd	Ecoli rRNA inh OD600	Ecoli rRNA inh	Ecoli rRNA inh RFP	Compound
5	10	2	2.4	C[C@H]1CN([C@@H](C)CO)C(=O)c2cc(NS(=O)(=O)c3ccccc3)ccc2O[C@H]1CN(C)S(C)(=O)=O
7	4	2	0.4	COc1ccc(S(=O)(=O)N(C)C[C@@H]2OCCCC[C@@H](C)Oc3ccc(NS(=O)(=O)c4ccc(C)cc4)cc3C(=O)N([C@H](C)CO)C[C@@H]2C)cc1
22	-11	-2	-0.2	C[C@@H]1CN([C@@H](C)CO)C(=O)Cc2cc(NS(=O)(=O)c3ccccc3)ccc2O[C@@H]1CN(C)S(=O)(=O)c1ccc(F)cc1
24	3	-1	1.0	COc1ccc(S(=O)(=O)Nc2ccc3c(c2)C(=O)N([C@@H](C)CO)C[C@@H](C)[C@H](CN(C)S(=O)(=O)c2cccs2)OCCCC[C@H](C)O3)cc1
30	1	-2	-3.3	CCCCNC(=O)c1nc(C2CCN(S(=O)(=O)c3ccc(S(C)(=O)=O)cc3)CC2)oc1-c1ccccc1
39	-13	-7	3.8	Cc1ccc(S(=O)(=O)Nc2ccc3c(c2)C(=O)N([C@H](C)CO)C[C@@H](C)[C@@H](CN(C)S(=O)(=O)c2ccc(F)cc2)O3)cc1
54	4	-4	0.3	C[C@H](CO)N1C[C@H](C)[C@H](CN(C)S(=O)(=O)c2cccs2)Oc2ncc(/C=C/c3ccccc3)cc2C1=O
63	-5	3	-3.7	COc1ccc(NC(=O)N(C)C[C@@H]2Oc3ccc(NS(=O)(=O)c4cccs4)cc3C(=O)N([C@@H](C)CO)C[C@H]2C)cc1
71	-6	2	-0.5	C[C@@H]1CN([C@@H](C)CO)C(=O)c2cc(NS(=O)(=O)c3cccs3)ccc2O[C@@H](C)CCCCO[C@H]1CN(C)CC1CCCCC1
